N370S GC mod = N370S glucocerebrosidase modulation, Gaucher chaperone candidate. P04062. N370S GC spleen homogenate, 4MU-glucoside fluorescence. Potency, µM (doses to about 59.4 µM), without a hit: at the top dose activity change, negative = inhibition, actives largely listed as inhibitors. hit rate 0.092% among 330,000;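 further: 0% = full enzyme activity and -100% = no enzyme basal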
GCN5L2 inh = inhibitors of human GCN5L2 histone acetyltransferase. Q92830. GCN5L2 HAT assay, ThioGlo1 CoA-SH fluorescence. Potency, µM (top dose mostly 58.9 µM), inactives show at the highest dose activity change, negative = inhibition, actives largely listed as inhibitors. hit rate 0.21% among 390,000
Target sequence (Q92830 whole entry, looked up): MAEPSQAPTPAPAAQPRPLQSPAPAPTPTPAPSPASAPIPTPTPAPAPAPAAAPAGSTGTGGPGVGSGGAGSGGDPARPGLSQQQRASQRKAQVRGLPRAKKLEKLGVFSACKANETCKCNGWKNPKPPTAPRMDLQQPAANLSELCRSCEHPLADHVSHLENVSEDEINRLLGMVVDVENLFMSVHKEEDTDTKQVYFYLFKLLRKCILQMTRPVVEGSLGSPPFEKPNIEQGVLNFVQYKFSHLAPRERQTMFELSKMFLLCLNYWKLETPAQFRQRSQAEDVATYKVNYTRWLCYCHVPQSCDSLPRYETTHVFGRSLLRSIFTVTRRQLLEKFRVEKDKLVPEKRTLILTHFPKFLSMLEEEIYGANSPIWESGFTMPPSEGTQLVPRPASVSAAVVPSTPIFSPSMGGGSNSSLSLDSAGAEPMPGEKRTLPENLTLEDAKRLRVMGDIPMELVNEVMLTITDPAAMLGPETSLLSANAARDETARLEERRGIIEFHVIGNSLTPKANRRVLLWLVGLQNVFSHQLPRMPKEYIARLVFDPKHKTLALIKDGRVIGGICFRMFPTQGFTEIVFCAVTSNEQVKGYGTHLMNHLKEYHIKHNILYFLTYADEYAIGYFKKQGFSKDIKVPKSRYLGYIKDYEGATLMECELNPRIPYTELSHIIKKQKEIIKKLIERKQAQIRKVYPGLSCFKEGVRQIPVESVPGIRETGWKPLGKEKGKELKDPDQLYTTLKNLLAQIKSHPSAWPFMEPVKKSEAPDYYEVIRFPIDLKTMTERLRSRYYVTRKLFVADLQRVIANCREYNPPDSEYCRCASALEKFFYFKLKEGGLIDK
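Compounds, pin-transferred from DMSO stocks, meet 20nM GCN5L2 for 15 min before the reaction begins with H3(1-25) peptide (75uM) and acetyl-CoA (70uM). Thiol-reactive ThioGlo1 reports CoA release over 20 min at room temperature.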
* marks the source's active call; other numbers are inactive results; ? = inconclusive; / = no result given; & = joins results of further samples; [ ] = remark or other dose. The call rests on the fitted dose curve; in most records, active means well fitted curve in the direction sought with a large enough effect; inconclusive means small, poorly fitted or top-dose-only effect, or another doubt; inactive means no such curve, though single readings can be large; an effect the other way counts as inactive or inconclusive. Unless noted, on the % scale 0 is the no-effect control and ±100 the full control effect; potency means the concentration at half of the fitted maximal effect.

Structure | N370S GC mod | GCN5L2 inh
COCCOC(=O)CSc1ncccc1-c1nc2cc(C)c(C)cc2[nH]1 | 8% | -18%
CC1=NN(Cc2c(C)nn(Cc3ccccc3)c2C)C(C)(C)C1 | 2% | -19%
O=C(/C=C/c1ccco1)Nc1ccccc1C(=O)O | -25% | -12%
O=c1cc2c(nn1Cc1ccccc1)-c1ccccc1CC2 | 20% | -9%
CC(Sc1nncn1-c1ccccc1)C(=O)Nc1cccc([N+](=O)[O-])c1 (stereo not given) | 9% | 4%
COCc1cc(CN2CCN(Cc3ccsc3)C(CCO)C2)ccc1OC (stereo not given) | 1% | 0%
CC(NCc1ccc(F)cc1)C(=O)NC1CCCCC1 (stereo not given) | -13% | -3%
CCS(=O)(=O)Nc1cccc(C2=NN(S(=O)(=O)CC)C(c3cccs3)C2)c1 (stereo not given) | -11% | -4%
Cc1ccc(S(=O)(=O)N2CCN=C2SC(C)c2ccccc2)cc1 (stereo not given) | -4% | ?
CC12CCC(C(=O)N(CC(O)CN3CCN(Cc4ccccc4)CC3)C1=O)C2(C)C (stereo not given) | 0% | 2%
CCCCc1c(C)nc2c(OC)cccc2c1SCCC(=O)O | 16% | -2%
COc1cccc(CNC(=O)CN2CCC(c3nc4ccc(C)cc4[nH]3)CC2)c1 | -8% | -6%
CCc1ccc2c(CN3CCc4cc(OC)c(OC)cc4C3)cc(=O)oc2c1 | 3% | -3%
CCOC(=O)c1[nH]c(C)c(C(=O)OCC(=O)N2c3ccccc3CC2C)c1C (stereo not given) | 7% | -11%
c1ccc(-c2noc(-c3cccc4ccccc34)n2)cc1 | 9% | -20%

Structure | N370S GC mod | GCN5L2 inh
COc1ccc(-c2[nH]ncc2C=O)cc1OC | -3% | -1%
Cc1ccc(/C=N/n2c(-c3ccncc3)n[nH]c2=S)cc1 | 0% | ?
CC(C)c1ccc(S(=O)(=O)N2CCN(C(C)C(=O)NC3CCCC3)CC2)cc1 (stereo not given) | / | -5%
CCC(=O)N/C(=N\OCc1ccc(F)cc1)c1nonc1NC(=O)CC | -18% | 1%
C[C@H]1CN(CCc2ccccc2)C(=O)[C@@H]1CC(=O)NCc1ccccc1 | 1% | -5%
O=C(N/N=C/c1cccc([N+](=O)[O-])c1)C(=O)N1CCCCCC1 | 1% | -8%
CSc1ccc(S(=O)(=O)NCC(=O)OC2CCOC2=O)cc1[N+](=O)[O-] (stereo not given) | -6% | -4%
CC(Cc1cccnc1)NC(=O)c1cc(COc2ccc(F)cc2F)on1 (stereo not given) | -4% | -4%
O=C1CCC(=O)N1Cc1c(Cl)cccc1Cl | -7% | -1%
CS(=O)(=O)c1ccc(Cl)c(NC(=O)C2CC(=O)N(Cc3ccccc3)C2)c1 (stereo not given) | -1% | 1%
CSc1nc2ccc(Cl)cc2[nH]1 | 13% | 0%
CC(NC(=O)CSc1n[nH]c(-c2ccccc2)n1)c1nc2ccccc2n1C (stereo not given) | / | -5%
Cc1ccc(C)c(NC(=O)CN(C)C(=O)c2cccc(S(=O)(=O)N(C)C)c2)c1 | -1% | -8%
COc1ccc(-c2nnn(CC(=O)c3c[nH]c4ccccc34)n2)cc1OC | 12% | -3%
CCc1cc(C(=O)N2CCN(c3ccccc3)CC2)no1 | / | 0%

Structure | N370S GC mod | GCN5L2 inh
CN1CCN(NC(=O)/C=C/c2ccc(Br)cc2)CC1 | -4% | -7%
Cc1cc(C)nc(Nc2n[nH]c(-c3ccc(C(C)(C)C)cc3)n2)n1 | -7% | -2%
Cc1ccc(CN2CCSCC2)cc1 | 1% | -7%
CCn1c(C)c(C)c2cc(C(=O)NCCCN3CCCCC3C)ccc21 (stereo not given) | ? | -3%&3%
Cc1cc(NC(=O)CSCC(=O)Nc2nc3ccccc3[nH]2)no1 | -7% | -6%
CC(=O)c1ccc(NC(=O)COC(=O)Cc2ccsc2)cc1 | / | -3%
CCOC(=O)C1=C(C)NC2=C(C(=O)CC(C)(C)C2)C1c1ccsc1 (stereo not given) | 0% | -15%
CC1(C)OC2CC3C4CCC5=CC(=O)C=C[C@@]5(C)[C@]4(F)C(O)C[C@@]3(C)[C@]2(C(=O)CO)O1 (stereo not given in full) | 4% | -5%
Brc1cccc2sc(N3CCCC3)nc12 | 2% | -8%
Cc1ccc(NC(=O)CNC(=O)c2cccc(C)c2)nc1 | -12% | -21%
Cc1c(NC(=O)Nc2cccc(C(F)(F)F)c2)c(=O)n(-c2ccccc2)n1C | 7% | -6%
O=C(Nc1ccc2c(c1)OCCO2)C1CCN(c2cnccn2)CC1 | -1% | -7%
O=S(=O)(NCc1ccccc1)c1ccc(S(=O)(=O)NCC2CCCO2)cc1 (stereo not given) | -14% | -1%
Cc1ccc(OCC(=O)Nc2ccc(-c3nc4ncccc4o3)cc2)cc1 | 6% | -15%
Cc1ccc2oc(C(=O)NCc3ccc(S(N)(=O)=O)cc3)cc(=O)c2c1 | -1% | -6%

Compound profiles, from the list above. Order of screens: N370S GC mod, GCN5L2 inh
Record of `Cc1ccc(OCC(=O)Nc2ccc(-c3nc4ncccc4o3)cc2)cc1` = 6%, -15%
Record of `CCOC(=O)C1=C(C)NC2=C(C(=O)CC(C)(C)C2)C1c1ccsc1` (stereo not given) = 0%, -15%
Record of `Brc1cccc2sc(N3CCCC3)nc12` = 2%, -8%
Record of `Cc1ccc2oc(C(=O)NCc3ccc(S(N)(=O)=O)cc3)cc(=O)c2c1` = -1%, -6%

Next structures follow.
Structure | N370S GC mod | GCN5L2 inh
CN(C(=O)CN1C(=O)/C(=C/c2ccccc2F)SC1=S)C1CCS(=O)(=O)C1 (stereo not given) | -1% | -6%
Cn1c(=O)oc2cc(S(=O)(=O)NCCC(=O)N3CC=C(c4ccccc4)CC3)ccc21 | -7% | 15%
Nc1ccccc1C(=O)N/N=C1/C2CN3CCN(C2)CC1(Cc1ccccc1)C3 | -2% | -7%
COc1ccc(-c2cc3nc(C)c(CCC(=O)N4CCN(c5ccccc5)CC4)c(C)n3n2)c(OC)c1 | / | -7%
Cn1c(=O)c(=O)n(C)c2cc(S(=O)(=O)N3CCCC3C(=O)Nc3ccc(F)cc3)ccc21 (stereo not given) | -3% | -2%&1%
CNC(=O)c1[nH]cnc1C(=O)Nc1ccccc1OC | 0% | 0%
Cc1nc2ccccc2n(CC(=O)Nc2cc(Cl)cc(Cl)c2)c1=O | 3% | 4%
CC(=O)N1CCN(C(=O)c2ccc(S(=O)(=O)Nc3ccccc3Cl)cc2)CC1 | -4% | -4%
O=C(N/N=C\c1cn[nH]c1-c1ccc(Cl)cc1)c1cccs1 | 11% | 3%
CC(C)(C)NC(=O)NC(=O)CN1C(=O)NC(C)(c2ccccc2)C1=O (stereo not given) | -4% | -4%
COC(=O)Nc1ccc(S(=O)(=O)N2CCCCC2C(=O)O)cc1 (stereo not given) | -17% | -5%
O=C(c1ccco1)N1CCN(c2ncnc3sc4c(c23)CCC4)CC1 | -3% | -4%
COC(=O)COc1cc(OCC(=O)OC)c2c(C)c(Cl)c(=O)oc2c1 | -3% | -14%
Cc1ccc(O)c(-c2cc(C(=O)Nc3cccnc3)[nH]n2)c1 | -4% | 2%
Cc1cc(=O)[nH]c(SCC(=O)c2ccc(F)c(C)c2)n1 | -9% | -2%

Structure | N370S GC mod | GCN5L2 inh
COc1cc(/C=C(\C#N)c2ccccn2)ccc1OCC(=O)Nc1c(Cl)cccc1Cl | 17% | -3%
Cc1ccc(NC(=O)Nc2ccc(Cl)cn2)cc1 | 26% | -25%
COc1cccc(C(=O)Nc2ccc(-c3cn4cccnc4n3)cc2)c1OC | / | -23%
CN(C)S(=O)(=O)c1ccc(C(=O)OCCN=C2NS(=O)(=O)c3ccccc32)cc1 | -17% | -18%
COC(=O)CNC(=O)c1c(-c2ccccc2Cl)noc1C | 4% | -12%
Cc1ccc(OCc2ccc(-c3ccccc3)cc2)c([N+](=O)[O-])n1 | -1% | -11%
CCC1=NN2C(=N)/C(=C/c3c(C)nn(-c4ccccc4)c3Cl)C(=O)N=C2S1 | 5% | -2%
CCOc1cc(/C=N/NC(=O)c2ccncc2)ccc1OC(=O)c1ccccc1 | -11% | -4%
COc1ccccc1-c1nnc(SC(C)C(=O)Nc2ccc(C(N)=O)cc2)o1 (stereo not given) | -1% | -2%
O=C(CSc1nnc2n1CCCCC2)Nc1ccc(N2CCOCC2)cc1 | -6% | 17%
COc1cccc(C2CC(C(F)(F)F)n3nc(C(=O)Nc4c(C)n(C)n(-c5ccccc5)c4=O)cc3N2)c1 (stereo not given) | 7% | 0%
Cc1onc(-c2ccccc2)c1C(=O)Nc1c(C)n(C)n(-c2ccccc2)c1=O | 7% | -1%
CCn1ncc(Br)c1C(=O)Nc1ccccc1OC | 1% | -12%
CC(C)(C)N1CC(C(=O)Nc2ccc(C#N)cc2)CC1=O (stereo not given) | -7% | -3%
O=C(NC1CCN(C(=O)NC2CCCCC2)CC1)c1cccc(F)c1 | -12% | 0%

SMILES	N370S GC mod	GCN5L2 inh
COc1cccc(C(=O)C2=NN(C(C)=O)CC2c2ccco2)c1 (stereo not given)	7%	-2%
Cc1csc(NC(=O)C2CCN(S(=O)(=O)c3cccs3)CC2)n1	-1%	3%
N#Cc1ccc(OCC(=O)N2CCc3ccccc32)cc1	/	-4%
O=C(COC(=O)c1cccc(C(=O)OCC(=O)NC2CCCCC2)n1)NC1CCCCC1	7%	-4%
Cc1cccc(C(=O)NCCC(=O)NCc2ccccc2F)c1	/	-8%
CCc1cc(/C(Cc2ccc3ccccc3n2)=N\O)c(O)cc1O	3%	-18%
COc1cc(OC)c(N(C)C(=O)c2cc3c(=O)oc4ccccc4c3s2)cc1Cl	/	-3%
COc1cccc(C(=O)Nc2ccc3nc4n(c(=O)c3c2)CCCCC4)c1	/	-5%

SMILES	N370S GC mod	GCN5L2 inh
CCN(CC)CCCC(C)NC(=O)c1cccc(S(=O)(=O)N2CCc3ccccc32)c1 (stereo not given)	-17%	1%
Cc1cccc(NCc2ccc(O)c3ncccc23)c1	-7%	4%
Cc1cccc(-n2ncc3c2CCCC3NC(=O)C2CCOCC2)c1C (stereo not given)	0%	-27%
O=C(NCc1ccc(Cl)cc1)C1=Cc2cc(Cl)ccc2OC1	9%	-7%
CCOC(=O)N1CCN(c2ccc(C(=O)c3cccc(F)c3)cc2)CC1	-2%	-2%[0.501 µM]
O=c1c(/C=C(\O)c2ccccc2)nc2ccccc2n1-c1ccccc1	-8%	-19%
O=C(CCN1CCOCC1)Nc1ccc2c(c1)CCC2	-1%	-5%
COc1ccccc1C(=O)Nc1ccccn1	2%	-1%

Three compounds from above, sorted by the value under N370S GC mod, falling:
Molecule | N370S GC mod | GCN5L2 inh
CC(Sc1nncn1-c1ccccc1)C(=O)Nc1cccc([N+](=O)[O-])c1 (stereo not given) | 9% | 4%
CC(C)(C)NC(=O)NC(=O)CN1C(=O)NC(C)(c2ccccc2)C1=O (stereo not given) | -4% | -4%
COc1cccc(CNC(=O)CN2CCC(c3nc4ccc(C)cc4[nH]3)CC2)c1 | -8% | -6%

New compounds follow.
SMILES	N370S GC mod	GCN5L2 inh
Cc1cc(C(=O)Cn2nc(C(=O)O)c3ccccc3c2=O)c(C)n1-c1cccc(C(F)(F)F)c1	-20%	-8%
CCCCOc1ccc(S(=O)(=O)Nc2ccc(NC(C)=O)cc2)cc1	-13%	-12%
Cc1cc(=O)oc2cc(OCC(=O)OC(C)C(=O)Nc3ccc(S(N)(=O)=O)cc3)ccc12 (stereo not given)	/	0%
Cc1cccn2c(=O)c3cc(C(=O)N4CCCCC4)sc3nc12	?	-13%
Cn1c(SCc2nc(-c3ccccc3)no2)nnc1-c1cccs1	20%	3%
NC(=O)C1CCN(CC(=O)Nc2cccnc2Cl)CC1	20%	-4%
Cc1cc(NC(=O)c2c(F)c(F)c(F)c(F)c2F)no1	-3%	0%
Cn1c(NC(=O)C2c3ccccc3Oc3ccccc32)cc(=O)n(C)c1=O	1%	-5%

SMILES	N370S GC mod	GCN5L2 inh
CC(=O)C(Sc1nc(N2CCOCC2)nc(N2CCOCC2)n1)C(=O)Nc1ccccc1 (stereo not given)	15%	-11%
O=C(N/N=C/c1ccco1)C1COc2ccccc2O1 (stereo not given)	-1%	-3%
COc1cc(Cl)c(C)cc1NC(=O)c1nn(C)c2c1CSc1ccccc1-2	/	-2%
Cc1ccccc1C(=O)Oc1cc(N)n(S(=O)(=O)c2ccccc2)n1	-12%	-6%
O=C(NCc1ccc2c(c1)OCO2)C1CC(c2cccc(Br)c2)=NO1 (stereo not given)	1%	-14%
O=C(Nc1ccc(C(=O)N2CCOCC2)cc1)c1cccc(Br)c1	-12%	?
CC1CCN(C2(O)C(=O)Nc3ccc(Br)cc32)CC1 (stereo not given)	4%	-7%
CCOc1ccc(N(CC(=O)NCc2ccc(F)cc2)C(=O)c2ccco2)cc1	-4%	-4%

SMILES	N370S GC mod	GCN5L2 inh
Cc1nnc(SCC(=O)NC(=O)NC(C)(C)C)n1N	3%	-5%
C[C@H](NC(=O)c1ccccc1F)C(=O)N1CCC2(CC1)NCCc1[nH]cnc12	-5%	-4%
COc1ccc(OC)c(NC(=O)CSc2nnc(Cn3c(=O)sc4ccccc43)n2C)c1	-2%	-1%
O=C(Nc1nccs1)C1Cc2ccccc2CN1S(=O)(=O)c1ccc(F)cc1 (stereo not given)	14%	0%
CCOC(=O)/C(C(N)=NCCO)=C(/O)c1ccccc1	4%	-11%[0.501 µM]
CS(=O)(=O)N(CC(=O)NC1CCCCCC1)Cc1ccccc1	0%	-7%
Cn1c(=O)oc2cc(S(=O)(=O)NCCC(=O)N3CCc4ccccc4C3)ccc21	4%	-1%

An excerpt, and most or all hits are left out here.
